Menin MLL FP FL – qHTS Assay for Inhibitors Targeting the Menin-MLL Interaction in MLL Related Leukemias: Competition With Fluorescein Labeled MLL-derived Peptide; Fluorescence polarization, fluorescein-MLL peptide displacement from menin; FP activity change, % at 61.4 µM; 290,000 tested, under 10 active; inconclusive = falling polarisation curve, or a change in total fluorescence; inactive = total fluorescence flat and polarisation flat or rising; no compound was filed as active; the % refers to the polarisation; negative = inhibition;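 note: % of control where 0% means no effect; inhibitors lower the polarisation; unlabelled MLL peptide was the positive control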
ClpP mod – qHTS Assay for Activators of ClpP. ATP-dependent Clp protease proteolytic subunit (Bacillus subtilis (strain 168)), P80244. Potency, µM (series often up to 57.5 µM), inactives show at the highest dose activity change, negative = active. 340,000 compounds, 1.9% hits. purified B. subtilis ClpP, FRET peptide cleavage, 20 min; active = well fitted falling curve with a large enough effect; inconclusive = small, poorly fitted or top-dose-only effect; inactive = no such curve, though single readings can be large or run the other way; note: potency is the fitted concentration of half-maximal effect; the source files actives as falling curves though it sought activators and does not explain the sign; nearly all actives have a fitted effect of over 65% in size; many hits overshoot -100%
Target sequence (P80244 whole entry, looked up): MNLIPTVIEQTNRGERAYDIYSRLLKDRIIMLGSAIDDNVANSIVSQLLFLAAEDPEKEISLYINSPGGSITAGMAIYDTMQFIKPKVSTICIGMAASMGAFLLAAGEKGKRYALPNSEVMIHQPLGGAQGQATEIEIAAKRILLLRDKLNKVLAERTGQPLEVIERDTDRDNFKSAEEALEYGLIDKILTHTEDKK
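FRET quenching reversal measured ClpP activation: 10 microg/mL B. subtilis ClpP at pH 8 with the FRET-FV decapeptide, read at 430 nm after 320 nm excitation. The 20-min minus 0-min signal was scaled between DMSO/no-enzyme wells and ADEP (5.8 microM final).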
CtBP-E1A inh – qHTS Assay for Inhibitors of the CtBP/E1A Interaction | activity change, % (test concentration not listed) | AlphaScreen GST-E1A/His-CtBP binding, 1536-well; active compounds read low; control for the full effect not named in the record | 340,000 compounds, 0.49% hits | AID 651724, 2012; in the data active means activity change below about -65%; inconclusive means about -30% to -65%; inactive means above about -30%; note: % is set by controls: 0 for no effect and ±100 for the full control effect
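Steps: dispense buffer (Tris pH 8.0, NaCl 300 mM, TCEP 1 mM, BSA, Tween 20); add 5X protein mix (GST-E1A, His-CtBP, 125 nM each); pin 23 nL compound; 2 h at 37 °C, dark; add 5X beads (50 ug/mL); 1 h; read.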
gsp ag – qHTS for Agonist of gsp, the Etiologic Mutation Responsible for Fibrous Dysplasia/McCune-Albright Syndrome: qHTS; Potency, µM (highest dose often 76.9 µM), for the others: top-dose activation (cAMP increase), hits mostly activators; AID 624287, 2012; gsp mutant cells, cAMP HTRF, 30 min; control for the full effect not named in the record; 340,000 compounds, 0.13% hits; active = well fitted activation curve with a large enough effect; inconclusive = small, poorly fitted or top-dose-only effect, or another doubt; inactive = no such curve, though single readings can be large or run the other way; cell line not stated here;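 note: phosphodiesterase inhibitor Ro 20-1724 added with compounds to block cAMP breakdown; potency is the fitted concentration of half-maximal effect; nearly all actives have a fitted effect of over 60% in size; about a fifth of the inactives were tested at one dose only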
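Cells stably selected in G418 were plated at 2000/well, grown 16-24 hr, then given compounds in DMSO with the PDE inhibitor […] (300 uM solution added) for 30 min at 37C; cAMP was read by HTRF.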
gsp antag – qHTS for Antagonists of gsp, the Etiologic Mutation Responsible for Fibrous Dysplasia/McCune-Albright Syndrome: qHTS. gsp-mutant cells, cAMP HTRF, 30 min; control for the full effect not named in the record. Potency, µM (series often up to 76.9 µM), for the others: at the highest dose activity change, negative = inhibition, actives largely listed as inhibitors. 340,000 compounds, 0.4% hits. AID 624288, 2012; active = falling curve of any shape with a large fitted effect; inconclusive = falling curve, mostly with a smaller effect; inactive = flat or rising curve; cell line not stated here;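 note: intracellular cAMP measured with PDE inhibitor Ro 20-1724 present during compound exposure; potency is the fitted concentration of half-maximal effect; % is set by controls: 0 for no effect and ±100 for the full control effect; nearly all actives have a fitted effect of over 65% in size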
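HTRF cAMP measurement after 30 min RT detection following 30 min, 37C compound treatment alongside […] (added as 300 uM solution) in G418-selected cells seeded at 2000/well and grown 16–24 h.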
Sfp PPTase inh – qHTS Assay for Inhibitors of Bacillus subtilis Sfp phosphopantetheinyl transferase (PPTase) | Biochemical Sfp PPTase activity, qHTS | Potency, µM, for the others: max response, negative = inhibition, hits mostly inhibitors | 310,000 compounds, 3.5% hits; active = well fitted inhibition curve with a large enough effect; inconclusive = small, poorly fitted or top-dose-only effect, or another doubt; inactive = no such curve, though single readings can be large or run the other way;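 note: the enzyme is Sfp with the accession as filed and its product quenches rhodamine fluorescence; potency is the fitted concentration of half-maximal effect; 0% = enzyme reaction without inhibitor and -100% = no enzyme wells; top concentration of the series not given in the record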
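Buffer: 50 mM Hepes-Na pH 7.6, 10 mM MgCl2, 0.01% Nonidet P-40, 0.01% BSA. Enzyme 15 nM, pre-exposed to compound 15 min; substrates then added and fluorescence change tracked over 30 min.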
TRPV1 potentiator – HTS Assay for Compounds that Act as Potentiators of the Vanilloid Receptor 1. Transient receptor potential cation channel subfamily V member 1 (Homo sapiens), Q8NER1. TRPV1-expressing cells, Fluo-8 calcium influx, capsaicin EC20 potentiation; host cell line not named in the record; control for the full effect not named in the record. potentiation, % at 8.33 µM. 320,000 compounds, 0.02% hits; active means potentiation above 80%; inconclusive means 30% to 80%; inactive means below 30%; note: 0% is about no effect
Target sequence (Q8NER1 whole entry, looked up): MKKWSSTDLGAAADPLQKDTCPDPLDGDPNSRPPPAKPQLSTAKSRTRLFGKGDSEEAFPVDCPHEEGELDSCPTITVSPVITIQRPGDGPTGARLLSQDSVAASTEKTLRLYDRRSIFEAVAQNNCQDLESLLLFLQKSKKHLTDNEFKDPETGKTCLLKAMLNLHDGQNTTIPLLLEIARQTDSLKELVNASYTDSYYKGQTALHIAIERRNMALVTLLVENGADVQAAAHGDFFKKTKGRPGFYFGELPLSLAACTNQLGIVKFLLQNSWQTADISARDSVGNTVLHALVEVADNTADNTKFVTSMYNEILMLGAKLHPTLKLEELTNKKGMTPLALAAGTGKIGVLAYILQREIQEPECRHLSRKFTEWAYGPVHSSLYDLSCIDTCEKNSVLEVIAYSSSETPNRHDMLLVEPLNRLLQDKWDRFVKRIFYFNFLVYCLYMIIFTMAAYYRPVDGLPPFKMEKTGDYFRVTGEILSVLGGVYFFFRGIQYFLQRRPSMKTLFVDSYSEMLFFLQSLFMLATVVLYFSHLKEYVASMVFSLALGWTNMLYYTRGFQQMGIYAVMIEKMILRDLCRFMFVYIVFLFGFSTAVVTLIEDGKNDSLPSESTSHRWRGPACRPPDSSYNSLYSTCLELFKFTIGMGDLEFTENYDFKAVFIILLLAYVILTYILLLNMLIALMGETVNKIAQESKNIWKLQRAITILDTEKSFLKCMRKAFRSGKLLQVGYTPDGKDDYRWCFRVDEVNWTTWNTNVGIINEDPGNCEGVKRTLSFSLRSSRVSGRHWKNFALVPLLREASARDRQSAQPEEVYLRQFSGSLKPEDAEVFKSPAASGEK
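TRPV1-expressing cells were cultured overnight at 35.5C and loaded with Fluo-8 calcium dye for 40 to 90 min at room temperature. After a 10 s baseline, compound was added and calcium influx was read kinetically for 3 min (ex 480/em 520 nm).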
* marks the source's active call; other numbers are inactive results; u = inconclusive; x = no result given; & = joins results of further samples; [ ] = dose if it differs, or a comment.

SMILES	Menin MLL FP FL	ClpP mod	CtBP-E1A inh	gsp ag	gsp antag	Sfp PPTase inh	TRPV1 potentiator
Cc1ccc(Oc2ccc(NC(=O)c3ccco3)cc2)cc1	-3.2	-4.0%	5	-5%	-37%	u	6
CC(C)C[C@H](NC(=O)c1nc[nH]c1C(=O)N[C@@H](CC(C)C)C(=O)OCc1ccccc1)C(=O)OCc1ccccc1	-0.6	-7.2%	-27	-3%	8%	16%	0
CCCc1nnc(NC(=O)CCC(=O)NC2CC2)s1	3.2	-2.4%	x	-2%	-3%	18%	25
CCOc1cc(N2CCOCC2)c(OCC)cc1NC(=O)CN1CCCC1	1.5	-1.1%	-8	-30%[inhibitor]	18%	u	-14
CCOc1cc2c(cc1O)CCC1C2CCC2(C)C(O)CCC12 (stereo not drawn)	x	-1.0%	-5	0%	5%	x	x
CCC(Cc1ccccc1)NC(=O)CCc1ccccc1 (stereo not drawn)	-0.7	-0.4%	4	-6%[15.4 µM]	14%	7%	0
Cc1c(CCO)c(=O)[nH]n1S(=O)(=O)c1ccccc1	3.3	x	x	-4%[15.4 µM]	8%	1%	0
COc1ccc(C(=O)N/C(=C\c2ccc3c(c2)OCO3)C(=O)Nc2ccc(C(=O)O)cc2)cc1	3.7	x	2	-9%[15.4 µM]	x	19%	-5
CCOc1ccccc1-n1c(SCC(=O)N(CC)CC)nnc1-c1ccccn1	2.8	-3.0%	1	-14%	-10%	3%	1
COc1cc(O)c2c(=O)c3c(OC)c(O)ccc3oc2c1	3.6	2.7%	-18	x	5%	-16%	12
Cc1ccc(NC(=O)CCC(=O)N/N=C/C=C/c2ccccc2)cc1	-0.6	x	6	-19%	8%	16%	-3
COc1ccc(CNC(=O)C2CCN(S(=O)(=O)c3ccc(SC)cc3)CC2)cc1	x	x	-3	-11%[15.4 µM]	x	9%	-2
O=C(CSc1nnc2ccccn12)Nc1ccc2c(c1)OCCO2	-0.7	x	8	-14%[15.4 µM]	-1%	6%	2
Nc1nn2cc(-c3ccccc3)nc2c2ccccc12	-1.3	u	-13	-26%[15.4 µM]	-8%	-6%	4
N#C/C(=C\c1ccc([N+](=O)[O-])cc1)C(=O)Nc1ccccc1O	5.0	1.3%	-5	u	18%	-11%	-5
CCCc1cc(=O)[nH]c(SCCc2ccccc2)n1	4.1	1.7%	x	2%	2%	5%	20
O=C(CC1CCCC1)NNC(=O)c1ccc(F)cc1	x	x	1	-5%[15.4 µM]	9%	x	-3
Cc1sc2nc(COC(=O)c3cccc(OC(F)F)c3)[nH]c(=O)c2c1C	u	x	-4	3%[15.4 µM]	2%	3%	6
O=C(O)COc1ccc2c(c1)O/C(=C\c1ccco1)C2=O	u	-13%	-22	21%	5%	u	1
CC1CCCCN1CCCNC(=O)c1c(O)nc2ccccn2c1=O (stereo not drawn)	-0.6	3.9%	4	u	25%	20%	0
Cc1ccc(Cl)cc1NS(=O)(=O)c1cn(C)nc1C	x	0.7%	9	-3%	11%	9%	-10
CCOc1ccc(N2C(=O)CC(/C=C3/N(C)c4ccccc4C3(C)C)C2=O)cc1 (stereo not drawn)	u	1.5%	8	15%[15.4 µM]	10%	0%	4
COc1ccc(CCC(=O)NNC(=O)Nc2ccc(C(C)=O)cc2)cc1	1.9	0.8%	2	9%[15.4 µM]	-8%	26%	-3
Oc1ccc(CN2CCc3ccccc3C2)c2cccnc12	-1.5	1.0%	-95*	10%	-6%	9%	-4
Nc1ccccc1/C=C/c1ccccc1N	x	x	-1	u	-2%	x	x
O=C(NCc1ccccn1)c1cccc([N+](=O)[O-])c1	1.6	-1.4%	-9	29%	15%	1%	15
Cn1nc(C(=O)NC2CCCCC2)c2ccccc2c1=O	-1.2	-3.1%	-4	-6%	1%	-2%	-9
COC(=O)c1c(NC(=O)CN2C(=O)C(=O)N(C(C)C)C2=O)sc(C)c1C	x	4.0%	-12	-8%	-3%	x	-3
COc1ccc(/C=C/C(=O)N2CCN(c3ccccn3)CC2)c2ccccc12	-1.0	-6.1%	-2	10%[15.4 µM]	-20%	-11%	8
CCOC(=O)N1CCc2c(sc(NC(C)=O)c2C(N)=O)C1	x	-26%	-1	-10%	1%	x	x
Cc1sc2ncnc(SCC(=O)N3CCCC3)c2c1C	2.7	-2.1%	0	u	4%	4%	-4
Cc1ccc(NC(=O)CSc2ccccc2)cc1S(=O)(=O)N1CCOCC1	x	0.5%	-1	-40%[inhibitor]	-6%	x	-3
Cc1c(NC(=O)Nc2ccc(C(C)C)cc2)c(=O)n(-c2ccccc2)n1C	x	-4.6%	1	u	11%	8%	12
CCc1cc2cc(C)cc(C)c2nc1SCC(=O)Nc1cc(C)on1	-4.2	x	0	3%	2%	4%	6
C=CCn1c(SCC(=O)OCC)nc(C(F)(F)F)cc1=O	-2.5	x	-2	-7%[15.4 µM]	-13%	16%	1
O=C(COC(=O)CNC(=O)c1ccccc1)Nc1ccccc1Cl	-0.4	x	0	-17%	-10%	18%	8
Cn1cc(-c2nnnn2-c2ccccc2)c(=O)c2ccccc21	3.6	-2.5%	3	-24%	7%	8%	-6
CC(=O)OC1[C@H](Oc2c(O)c(C)c3c4c2[C@@H](C)CC[C@@H]4[C@@H](C)C[C@@H]3C=C(C)C)OC[C@@H](O)[C@@H]1O (stereo partly drawn)	x	-1.7%	0	17%	2%	x	x
C=CCn1c(CNC(=O)c2ccco2)nnc1SCC(=O)c1ccccc1	4.5	x	1	-9%[15.4 µM]	2%	45µM*	12
Cc1ccc(-c2nc(=S)c3c(n2Cc2cccnc2)CC(C)(C)OC3)cc1	2.6	x	-9	-5%[15.4 µM]	2%	0%	5
Cc1ccccc1NC(=O)Cn1nc(C(=O)O)c2ccccc2c1=O	-1.7	x	-6	13%[15.4 µM]	2%	21%	3
O=C(Nc1ccc2[nH]c3c(c2c1)CCCC3)c1ccco1	u	-1.3%	-20	16%	-3%	-14%	-21
OC(CC#CCN1CCCCC1)(c1ccccc1)c1ccccc1	-0.9	29%	1	-1%[15.4 µM]	-1%	14%	0
CC(C(=O)NCCN1C(=O)S/C(=C\c2cccnc2)C1=O)N1C(=O)c2ccccc2C1=O (stereo not drawn)	5.5	-1.8%	-28	-40%[inhibitor]	-1%	17%	3
CSc1ccccc1C(=O)C1CCCN(Cc2c(C)n(C)n(-c3ccccc3)c2=O)C1 (stereo not drawn)	0.1	x	-14	-11%[15.4 µM]	6%	18%	5
COc1ccc(C(C(=O)NC(C)(C)C)N(Cc2ccco2)C(=O)CCC(=O)Nc2cc(C)on2)cc1 (stereo not drawn)	2.6	-1.1%	4	-4%	5%	2%	1
CCOC(=O)c1c(NC(=S)Nc2ccccc2)sc(C)c1C	0.1	4.3%	25	17%	25%	2%	u
Cc1ccc(-c2csc(NC(=O)CSc3nc(C)cs3)n2)cc1	6.1	-1.0%	0	-16%	u	-9%	27
CC[C@H](C)NC(=O)c1ccc(Cn2c(=S)[nH]c3c([nH]c4ccc(OC)cc43)c2=O)cc1	-0.5	6.4%	-2	0%	-10%	11%	-15
O=C(CCCSc1nc2ccccc2s1)NCc1ccco1	2.7	1.2%	-2	-7%	3%	-8%	x
COc1cccc(OCC(=O)N2CCC3(CC2)CC(=O)c2ccccc2O3)c1	x	u	11	-7%[15.4 µM]	-16%	x	1
O=C(CCn1c(=O)[nH]c2ccsc2c1=O)N1CCN(Cc2ccc3c(c2)OCO3)CC1	0.0	-1.6%	-2	-1%	0%	29%	5
Cc1ccc(C(=O)C(C)OC(=O)C2=COCCO2)cc1C (stereo not drawn)	6.3	-1.6%	-3	-6%	-10%	-8%	-13
COc1ccc(C(=O)COC(=O)c2ccccc2O)c(OC)c1	x	-9.7%	9	-24%	-10%	x	-5
Cc1scc(C(=O)Nn2cnnc2)c1-c1ccccc1	0.4	0.2%	18	-22%	11%	4%	15
COc1cc(C2C(C(=O)c3ccc(C)o3)=C(O)C(=O)N2c2cc(C)on2)cc(Br)c1O (stereo not drawn)	14	-0.6%	-1	u	-6%	-1%	-14
COc1ccccc1NC(=O)Cn1nnc(C(=O)NCc2ccc3c(c2)OCO3)c1N	-3.8	0.0%&-4.1%	3	-2%	6%	-2%	3
CC1CCCN(C2=C(NS(=O)(=O)c3ccc(Cl)cc3)C(=O)c3ccccc3C2=O)C1 (stereo not drawn)	-15	x	u	-7%[15.4 µM]	-16%	-13%	2
CC1CCN(C(c2cc3cc4c(cc3[nH]c2=O)OCO4)c2nnnn2CC2CCCO2)CC1 (stereo not drawn)	0.5	u	43	45%	15%	18%	u
O=C(COc1ccc(Cl)cc1)Nc1ccc2c(c1)C(=O)NC2=O	x	-10%	7	-17%	9%	3%	1

Next structures
SMILES	Menin MLL FP FL	ClpP mod	CtBP-E1A inh	gsp ag	gsp antag	Sfp PPTase inh	TRPV1 potentiator
CCOc1cc(CO)cc(Br)c1OCC(=O)O	x	-7.0%	-1	-16%	6%	x	x
CC1CCN(c2ccc(NC(=O)c3cccnc3)cc2)CC1	13	0.0%	-17	-34%[inhibitor]	-10%	-2%	-2
CCCc1cc(C(=O)N2CCC(n3nccc3NC(=O)c3ccc(OC)cc3)CC2)no1	x	-0.7%	4	-1%	5%	10%	28
Nc1ncnc(N)c1N=Nc1ccccc1	0.3	x	-22	-35%[inhibitor]	-7%	7%	-21
Cc1ccc(NC(=S)NC(=O)C2CCCC2)c(Br)c1	x	-2.8%	-3	-48%[inhibitor]	-12%	x	x
CN(C)/C=C1/C(=O)N(c2ccc([N+](=O)[O-])cc2)N=C1c1ccccc1	2.8	x	x	x	x	-2%	4

Screening results deposited in PubChem by National Center for Advancing Translational Sciences (NCATS).

Rows were taken by chance; any-hit rate near 5.3%.
